GLA inh pH 4.5: alpha-galactosidase A (human) inhibition, pH 4.5; purified enzyme, 4-MU-alpha-Gal fluorescence, pH 4.5; activity change, negative = inhibition, % at 105 µM; 230,000 tested, under 10 active; inconclusive = small, poorly fitted or top-dose-only inhibition, or a rising curve; inactive = flat fitted curve, though single readings scatter; no compound was filed as active;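 also: 0% = full activity with enzyme and -100% = basal without enzyme; dose as in the result columns while the protocol names 77 µM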
Rango release inh: prevents RanGTP from dissociating the Rango-importin beta complex. O95149+P62826. Biochemical FRET Rango-importin beta, RanGTP-induced dissociation. Potency, µM (series often up to 46.1 µM), for the others: at the top dose activity change, negative = inhibition. 0.071% of 340,000 active; active means falling FRET ratio curve, often poorly fitted, with flat reads before Ran was added; inconclusive means other falling curves, or compound fluorescence or quenching; inactive means flat or rising ratio curve;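 also: potency is read from the fitted curve at half-maximal effect; % of control where 0% means no effect; nearly all actives have a fitted effect of over 45% in size; -100% = wells without RanGTP and RCC1; the record marks most hits as doubtful in a second field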
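Quantitative HTS using a FRET biosensor: 0.1 uM Rango, 0.25 uM importin beta, 0.6 uM Ran, 2 mM GTP, 0.2 uM RCC1 final, PBS with DTT, Tween-20 and BSA. Post-read taken 45 min after Ran addition.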
Rango complex inh: inhibitors of Rango-importin beta complex formation. Q14974. Rango CFP/YFP FRET sensor + importin beta, 45 min. Potency, µM (series often up to 92.2 µM), for the others: top-dose inhibition of complex formation. 0.031% of 340,000 active. AID 540263; active = rising FRET ratio curve, often small or poorly fitted; inconclusive = mostly compound fluorescence or quenching in the first reads; inactive = flat curves in all reads;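 also: potency is read from the fitted curve at half-maximal effect; 0% = DMSO wells and 100% = buffer wells lacking importin beta; nearly all actives have a fitted effect of over 15% in size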
Target sequence (Q14974 whole entry, looked up): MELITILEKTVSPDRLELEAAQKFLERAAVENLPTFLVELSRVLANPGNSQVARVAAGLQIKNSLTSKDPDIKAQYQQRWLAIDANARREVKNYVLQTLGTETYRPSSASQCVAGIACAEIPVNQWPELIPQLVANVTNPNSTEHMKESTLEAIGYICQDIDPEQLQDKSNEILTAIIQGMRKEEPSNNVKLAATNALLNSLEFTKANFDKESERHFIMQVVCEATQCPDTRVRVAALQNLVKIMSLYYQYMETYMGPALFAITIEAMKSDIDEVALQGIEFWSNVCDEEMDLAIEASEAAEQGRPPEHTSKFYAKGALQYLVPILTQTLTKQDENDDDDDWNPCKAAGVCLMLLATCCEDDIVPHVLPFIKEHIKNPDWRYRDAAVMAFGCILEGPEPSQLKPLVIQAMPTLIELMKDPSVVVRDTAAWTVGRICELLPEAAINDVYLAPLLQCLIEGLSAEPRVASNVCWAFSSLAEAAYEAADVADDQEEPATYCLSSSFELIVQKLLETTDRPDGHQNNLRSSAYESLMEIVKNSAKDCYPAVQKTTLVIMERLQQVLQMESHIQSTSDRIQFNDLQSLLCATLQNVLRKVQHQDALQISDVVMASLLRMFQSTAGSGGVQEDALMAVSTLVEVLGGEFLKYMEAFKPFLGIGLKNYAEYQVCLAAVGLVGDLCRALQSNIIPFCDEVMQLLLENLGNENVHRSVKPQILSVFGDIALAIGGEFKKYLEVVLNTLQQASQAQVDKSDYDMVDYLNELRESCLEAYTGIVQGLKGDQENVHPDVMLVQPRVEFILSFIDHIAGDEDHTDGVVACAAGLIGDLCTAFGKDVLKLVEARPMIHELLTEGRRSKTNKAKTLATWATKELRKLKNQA
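FRET biosensor Rango (snurportin 1 IBB between N-terminal EYFP and C-terminal Cerulean), 50 nM in PBS/1 mM DTT/0.02% Tween-20/0.1% BSA, preincubated 5 min RT with compound; 0.125 microM importin beta added, 45 min RT, CFP/YFP FRET ratio read.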
miR-21 reporter: raises the signal of a miR-21 reporter | 340,000 tested, under 10 active | Potency, µM (series often up to 38.3 µM), inactives show top-dose reporter change, positive = more light | HeLa miR-21 FLuc reporter, luciferase, 48 h; active = well fitted rising curve with a large enough effect; inconclusive = small, poorly fitted or top-dose-only effect; inactive = no such curve, though single readings can be large or run the other way;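 also: % of control where 0% means no effect; miR-21 action dims this reporter so a rising signal means less miR-21 action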
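HeLa cells stably expressing CMV-driven firefly luciferase with a downstream miR-21 binding sequence, endogenously expressing miR-21, were treated with titrations (up to about 40uM final) for 48 hours at 37 degree Celsius. Luciferase luminescence was read after lysis.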
Numbers without * were called inactive; ? = inconclusive; . = no result given; & = joins results of further samples.

The line under a structure holds: GLA inh pH 4.5	Rango release inh	Rango complex inh	miR-21 reporter
1: COc1ccccc1NC(=O)CCC(=O)O
    0	0%	-1.4%	-2%
2: CC(Oc1cccc(NC(=O)c2cccs2)c1)C(=O)c1ccccc1 (stereo not given)
    -4	2%	2.3%	3%
3: O=C(NCCC1=CCCCC1)C1CCC(CNS(=O)(=O)c2ccccc2)CC1 (stereo not given)
    2	4%	-2.7%	-9%
4: C=C1C[C@H](O)[C@@H]2[C@H](OC(=O)[C@H]2C)[C@H]2[C@H](C)[C@@H](O)C[C@@H]12
    .	1%	1.0%	.
5: CN(C(=O)CSc1nnc(-c2cccnc2)n1-c1ccccc1F)C1CCS(=O)(=O)C1 (stereo not given)
    9	9%	3.1%	-4%
6: Cc1cccc(OCCCC(=O)Nc2ccc(S(N)(=O)=O)cc2)c1C
    6	-15%	-2.1%	-2%
7: NC(=O)CSc1nnc(Cc2ccc3c(c2)OCO3)o1
    3	-1%	-0.3%	-1%
8: COc1ccc(N(CC(=O)N/N=C/c2ccc(OC)c(OC)c2)S(=O)(=O)c2ccccc2)cc1
    .	16%	-4.5%	-19%
9: CCOC(=O)c1ccc(-c2c(-c3ccc4c(c3)OCO4)noc2C)cc1F
    .	7%	0.5%	-3%
10: CC1CC(=O)c2cnc(NCc3ccco3)nc2C1 (stereo not given)
    -7	-5%	-0.2%	-22%

Quoted at random: three records from the list
The line under a structure holds: GLA inh pH 4.5	Rango release inh	Rango complex inh	miR-21 reporter
2: CC(Oc1cccc(NC(=O)c2cccs2)c1)C(=O)c1ccccc1 (stereo not given)
    -4	2%	2.3%	3%
5: CN(C(=O)CSc1nnc(-c2cccnc2)n1-c1ccccc1F)C1CCS(=O)(=O)C1 (stereo not given)
    9	9%	3.1%	-4%
7: NC(=O)CSc1nnc(Cc2ccc3c(c2)OCO3)o1
    3	-1%	-0.3%	-1%

(next part)
The line under a structure holds: GLA inh pH 4.5	Rango release inh	Rango complex inh	miR-21 reporter
11: Cc1ccc(Nc2nc(=O)c3cccnc3s2)c(Br)c1
    -1	-7%	1.5%	-2%
12: O=C(c1cnn2c(C(F)F)cc(-c3ccccc3)nc12)N1CCCCC1c1cccnc1 (stereo not given)
    -7	-21%	-3.4%	-12%
13: O=C1NC(C(=O)O)=CC(c2cccc(Cl)c2Cl)N1 (stereo not given)
    .	11%	-0.2%	.
14: O=C(Cn1nnc(-c2ccccc2NC(=O)c2cccs2)n1)Nc1ccccc1
    5	11%	0.1%	-2%
15: COc1cc(NC(=O)C2C3CCC(O3)C2C(=O)O)cc(OC)c1 (stereo not given)
    .	5%	1.0%	2%
16: COc1cc2ccccc2cc1C(=O)Nc1ccc2oc(=O)ccc2c1
    .	-14%	0.0%	-2%
17: c1csc(-c2nnc(N3CCCCCC3)c3ccccc23)c1
    -7	-5%	-0.2%	-35%
18: CCCCC(=O)Nc1cccn2ncnc12
    4	-6%	-5.5%	8%
19: Cc1cnc(C(=O)OCc2c(C)cc(C(C)(C)C)cc2C)cn1
    .	0%	-3.6%	4%
20: COc1ccc(OC)c(NS(=O)(=O)c2cccc3cccnc23)c1
    .	25%	-3.0%	6%
21: CC1(NC(=O)Cc2c(F)cccc2Cl)CCS(=O)(=O)C1 (stereo not given)
    .	6%	0.0%	.
22: Cc1ccc(C(=O)OCC(=O)Nc2ccc3c(c2)OCO3)cc1S(=O)(=O)N1CCOCC1
    0	-1%	1.6%	-8%
23: COC(=O)[C@@H]1C[C@@H]2CC[C@@H](O)C[C@@H]2N1Cc1ccc(N2CCN(C)CC2)cc1
    -3&3	-16%	3.0%	-2%
24: CCOc1cc(C2C(C(=O)OC)=CN(Cc3ccc(Cl)cc3)C=C2C(=O)OC)ccc1O
    .	-9%	?	16%
25: c1ccc2c(c1)CCN(CCCNc1nc3ccccc3n3cnnc13)C2
    0	-6%	-0.4%	-13%
26: CCN(C(=O)COC(=O)CCn1c(C)csc1=O)c1c(N)n(Cc2ccccc2)c(=O)[nH]c1=O
    .	24%	-1.0%	.
27: Cc1ccc(OCCC(=O)OCC(=O)NCc2ccccc2)cc1
    .	-5%	-1.6%	.
28: COc1ccc(OC)c(S(=O)(=O)N2CCN(C)CC2c2ccccc2)c1 (stereo not given)
    .	0%	-1.4%	.
29: CCn1c(SCC(=O)N2CCCC2)nc2c(c1=O)SCC2
    .	13%	-3.3%	3%
30: COC(=O)c1c(C)[nH]c(O)c1C=Nc1ccc(C(C)C)cc1
    1	-21%	?	-26%
31: Cc1ccc(C(=O)NCCCNC(=O)c2ccccn2)cc1
    .	5%	-0.2%	-5%
32: CCn1c(SCC(=O)Nc2ccccc2N2CCCCC2)nc2c1c(=O)n(C)c(=O)n2C
    3	2%	-2.6%	5%
33: O=C(NNC1CC(=O)N(c2ccc3c(c2)OCCO3)C1=O)c1ccc(Cl)cc1 (stereo not given)
    -3	-1%	-4.4%	-3%
34: O=C(NC1CCCCCCC1O)c1ccccc1 (stereo not given)
    .	-2%	0.1%	.
35: CN(C)S(=O)(=O)c1cccc(NC(=O)COC(=O)c2cccc(S(=O)(=O)N3CCc4ccccc4C3)c2)c1
    -3	-9%	1.1%	1%
36: COC(=O)C1=C(C)N(c2ccc(C(=O)OC)cc2)C(=O)C1
    -12	-10%	0.5%	-14%
37: COc1ccccc1Cn1c(=O)oc2ccc(C)cc21
    .	-1%	-1.6%	0%
38: CC(=O)NS(=O)(=O)c1ccc2c(c1)C(=O)c1cc(S(=O)(=O)NC(C)=O)ccc1-2
    .	-29%	-2.5%	0%
39: O=C(CC1CCCCC1)NCCOc1ccccc1
    -25	19%	0.2%	-40%
40: CCN(CC)S(=O)(=O)c1ccc(C(=O)Nc2nnc(COC)o2)cc1
    -6	-2%	0.7%	0%
41: CNC(=O)C1CC(=O)N(c2ccc(OCC(=O)N3CCCC3)cc2)C1 (stereo not given)
    .	20%	-0.4%	-2%
42: CCOc1ncccc1C(=O)Nc1cccc(-n2cnnn2)c1C
    .	-4%	11%	.
43: CCN(CC)c1ccc(NC(=S)NC(=O)Cc2ccccc2)cc1
    -6	2%	0.0%	-9%
44: COc1ccc(NC(=O)CN2C(=O)COc3ccccc32)cc1OC
    .	0%	-0.4%	-6%
45: O=C(CCC(=O)c1ccc(Cl)cc1)NCc1ccccc1
    .	-9%	1.9%	0%
46: CN(CC1CCOCC1)C(=O)CC1C(=O)NCCN1Cc1ccc(Cl)c(F)c1 (stereo not given)
    0	18%	3.4%	-2%
47: N#Cc1cccnc1N1CCN(C(=O)c2ccco2)CC1
    -13	-4%	1.2%	-20%
48: COc1ccc(-c2nn3c(-c4ccccc4)nnc3s2)cc1
    -8	2%	-0.9%	-27%
49: O=C(NC(=S)N1CCOCC1)c1cc2ccccc2o1
    0	-26%	-1.1%	-36%
50: c1ccc(-n2ncc3c(NCc4cccnc4)ncnc32)cc1
    4	-1%	0.1%	-24%
51: Cc1ccnc(NS(=O)(=O)c2ccc(N3C(=O)c4c(Cl)c(Cl)c(Cl)c(Cl)c4C3=O)cc2)n1
    -2	-15%	-0.2%	1%
52: CC(=O)Nc1cc(C(=O)OCC(=O)c2ccc(Cl)cc2Cl)ccc1C
    0	3%	-0.1%	-4%
53: O=C(NCCc1ccccc1)C(=O)c1c(-c2ccccc2)[nH]c2ccccc12
    -18	1%	-1.5%	6%
54: O=S(=O)(Cc1ccccc1Cl)NCCc1ccccc1
    -16	1%	-0.4%	-16%
55: Cc1ccc(/C=C2\SC(=O)N(CCC(=O)N3CCN(C)CC3)C2=O)cc1
    .	?	?	-21%
56: COCCCN(Cc1ccccn1)S(=O)(=O)Cc1ccccc1
    -5	7%	0.4%	-4%
57: COc1cc(OC)c2ccc(=O)oc2c1C(CC(=O)N1CCOCC1)c1ccc2c(c1)OCO2 (stereo not given)
    0	2%	?	-13%
58: COc1ccc(-n2c(SCC(=O)Nc3ccccc3C)nc(O)c(Cc3ccccc3)c2=O)cc1
    .	1%	0.4%	0%
59: O=C(O)c1ccc(CSc2nnc(COc3ccccc3)o2)cc1
    4	-18%	0.0%	-9%
60: O=C(O)c1cccc(NS(=O)(=O)c2cccc3nsnc23)c1
    -2	-5%	-1.2%	-2%

The list continues.
The line under a structure holds: GLA inh pH 4.5	Rango release inh	Rango complex inh	miR-21 reporter
61: COc1ccc(NS(=O)(=O)c2cccc(NC(=O)COc3ccccc3[N+](=O)[O-])c2)cc1
    .	-7%	-1.5%	.
62: COc1ccccc1Cn1c(=S)[nH]c2cc(C(=O)N3CCN(c4ccccc4OC)CC3)ccc2c1=O
    .	0%	-2.7%	5%
63: O=C(CSc1nnc(-c2ccc(F)cc2)o1)NC1CCCCC1
    -21	0%	-0.8%	-5%
64: O=C(CN1C(=O)COc2ccc(S(=O)(=O)N3CCCC3)cc21)NC1CCCCCCC1
    -3	.	.	-6%
65: Cc1ccc(C(C)C)c(OCC(=O)OCc2c(C)noc2C)c1
    -14	1%	-1.4%	1%
66: CN(C)/C=C(\C(=O)c1cccc(Cl)c1)c1nnnn1-c1ccccc1
    -8	2%	3.8%	-3%
67: Nc1c(C(=O)O)sc2nc3c(cc12)CCCC3
    -1	-19%	?	-12%
68: COc1ccc(-c2cn(-c3ccc(C)c(Cl)c3)c(=S)[nH]2)cc1OC
    .	0%	7.2%	7%
69: Nc1c(C(=O)NC2CCCC2)sc2nc(-c3cccs3)ccc12
    -3	?	?	-25%
70: Clc1cccc(Nc2ncnc3ccc(Br)cc23)c1
    -7	-8%	3.2%	30%
71: Fc1ccc(CNc2ccc(N3CCN(Cc4ccccc4)CC3)cc2)cc1
    .	0%	2.2%	0%
72: COc1ccccc1NCCC(=O)OCC(=O)Nc1cc([N+](=O)[O-])ccc1F
    .	1%	-3.2%	.
73: COc1cc2c(cc1N/C=C(\C#N)c1nc(-c3ccccc3)cs1)oc1ccccc12
    -18	-9%	-0.7%	2%
74: CC(=O)[C@H]1CC[C@H]2[C@@H]3C=CC4=CC(=O)CC[C@@]4(C)[C@@H]3CC[C@]12C
    .	-9%	-4.0%	.
75: O=C(C1=C(O)C(=O)N(CC2CCCO2)C1c1ccccc1Cl)c1ccco1 (stereo not given)
    .	5%	-4.0%	3%
76: COc1cc(F)c(C(=O)NC(C)(C)CO)cc1OC
    .	5%	4.2%	.
77: COC(=O)C(Cc1cnc(Cl)s1)(C(=O)OC)c1ccc([N+](=O)[O-])cc1[N+](=O)[O-]
    -2	-22%	3.5%	1%
78: Cc1ccccc1NC(=O)c1cc2ccccn2n1
    -4	23%	-0.5%	-18%
79: Cc1ccc(S(=O)(=O)N2CCCC2)cc1C(=O)N1CCN(Cc2ccccc2)CC1
    .	5%	-1.2%	5%
80: COc1ccccc1N(CC(=O)N/N=C/c1ccc(SC)cc1)S(C)(=O)=O
    0	-12%	-1.4%	0%
81: CC(C)N(C)Cc1nnnn1CC(=O)N(C)Cc1ccc(F)cc1
    .	12%	-0.2%	0%
82: O=C(CN1C(=O)NC2(CCCCC2)C1=O)Nc1ccc(S(=O)(=O)N2CCOCC2)cc1
    -4	10%	1.2%	-11%
83: O=C(CCN1CCN(CCO)CC1)Nc1ccccc1
    .	2%	-2.3%	2%
84: CN(C)c1nc(OCCOC(=O)Nc2ccc(Cl)cc2Cl)nc(N(C)C)n1
    -11	-4%	-3.2%	-3%
85: O=C(NCc1ccc(Cl)cc1)C1CCN(C(=O)c2ccco2)CC1
    .	1%	-0.1%	-4%
86: CCCCNC(=O)C1CC(c2ccccc2[N+](=O)[O-])=NO1 (stereo not given)
    -6	0%	-4.0%	-11%
87: N#CC(=C=[N-])C1=C(C#N)C(c2ccccc2F)C([n+]2ccccc2)C(O)(C2CC2)N1 (stereo not given)
    6	?	?	-5%
88: O=C(NCC(=O)N1CCN(S(=O)(=O)c2cccs2)CC1)c1ccc(Cl)cc1
    -4	-1%	-2.6%	0%
89: Cn1c2ccccc2c2ncn(Cc3ccc(F)cc3)c(=O)c21
    7	3%	-2.8%	-2%
90: O=C1NC(c2ccccc2)=C(c2ccc3ccccc3n2)C(c2ccncc2)N1 (stereo not given)
    -8	-10%	0.3%	-2%
91: CC(C)(Oc1ccc(Cl)cc1)C(=O)OCC(=O)NCCc1ccc(S(N)(=O)=O)cc1
    .	-9%	0.8%	.
92: COc1cnc(N(C)C)nc1Sc1cccc(Cl)c1
    -17	-6%	-1.5%	-6%
93: O=c1cc(-c2ccccc2)oc2cccc(O)c12
    -1&-6	-1%	-0.2%	.

Only part of the results is shown, so the mix of outcomes need not match the whole.
